Polio RdRp inh: inhibitors of poliovirus RNA polymerase binding and polymerization. P03300. poliovirus polymerase elongation, fluorescence polarization; hits give low values. % elongation, % (compound at 16.7 µg/mL). 0.66% of 150,000 active. AID 588519; in the data active means % elongation below about 90%; further: some results filed as inactive read as strong as hits
Target sequence (P03300 1749-2209 limits assumed): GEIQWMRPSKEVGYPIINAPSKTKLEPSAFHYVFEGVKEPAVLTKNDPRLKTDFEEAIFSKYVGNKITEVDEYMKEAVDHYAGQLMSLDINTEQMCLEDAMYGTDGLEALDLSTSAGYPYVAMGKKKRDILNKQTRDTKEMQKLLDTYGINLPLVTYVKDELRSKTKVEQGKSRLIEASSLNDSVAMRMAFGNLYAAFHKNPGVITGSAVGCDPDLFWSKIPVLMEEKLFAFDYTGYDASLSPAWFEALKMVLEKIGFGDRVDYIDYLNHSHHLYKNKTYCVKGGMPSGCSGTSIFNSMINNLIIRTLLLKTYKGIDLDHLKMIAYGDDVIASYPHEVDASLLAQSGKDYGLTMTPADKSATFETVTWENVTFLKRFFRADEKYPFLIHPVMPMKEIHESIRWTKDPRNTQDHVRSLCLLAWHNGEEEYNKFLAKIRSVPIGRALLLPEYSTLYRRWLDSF
MenB inh: inhibitors of Mycobacterium tuberculosis MenB enzyme. P9WNP5. MenB enzyme assay, absorbance read-out; some hits fall short of the stated cut. inhibition, %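 (about 12 µg/mL by stock and volumes)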. 0.43% of 100,000 active. AID 540299;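 active means mean of two replicates above 30%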;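 further: 0% = no compound and 100% = wells with inactive enzyme; the first replicate is given; strong numbers were not always called active; inactives centre near -10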
Target sequence (P9WNP5 whole entry, looked up): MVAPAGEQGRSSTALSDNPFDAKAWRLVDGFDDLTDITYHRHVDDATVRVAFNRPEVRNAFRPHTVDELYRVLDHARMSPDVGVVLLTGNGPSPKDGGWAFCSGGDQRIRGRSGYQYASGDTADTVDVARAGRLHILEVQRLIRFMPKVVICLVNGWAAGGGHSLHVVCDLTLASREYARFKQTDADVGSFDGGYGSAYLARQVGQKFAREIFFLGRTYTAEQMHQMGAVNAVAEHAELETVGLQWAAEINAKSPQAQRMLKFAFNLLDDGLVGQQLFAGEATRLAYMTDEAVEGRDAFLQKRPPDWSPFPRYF
MbtI inh: blocks the Mycobacterium tuberculosis siderophore enzyme MbtI. P9WFX0. purified MbtI enzyme, fluorescence intensity read-out. inhibition, %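 (about 17 µg/mL by stock and volumes)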. 0.89% of 100,000 active;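 active means above 50% in both replicates, above 80% if mildly self-fluorescent; inactive means the rest, strongly fluorescent compounds included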;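 further: 0% = mean of negative and 100% = mean of positive controls; one replicate is shown; some compounds called inactive have numbers as strong as hits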
Polio RdRp inh intensity: second read-out of Polio RdRp inh, no call of its own (marks repeat the call); % elongation; measured here: total intensity read-out; formula for this scale not given here;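 total fluorescence in place of polarization; lower means less elongation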
* marks the source's active call; other numbers are inactive results; i = inactive; / = no result given.

SMILES | Polio RdRp inh | Polio RdRp inh intensity | MenB inh | MbtI inh
CC1CN(C(=O)NCc2ccccc2)c2ccccc2S1 (configuration not stated) | 100 | 103 | 7 | -3
O=C(O)CSc1nc2cc(C(F)(F)F)ccc2n1Cc1ccccc1 | 103 | 106 | / | 72
CCCSc1nc2cc(C)c(C)cc2[nH]1 | 103 | 108 | / | -10
NC(=O)NC(=O)COc1ncnc2ccccc12 | 102 | 101 | 8 | 16
CSC(=CC(=O)c1ccc(Cl)cc1)SC | 101 | 103 | -14 | 15
O=C(O)c1ccc(CSc2nnc(COc3ccc(Cl)cc3Cl)o2)cc1 | 101 | 105 | 7 | 0
Cc1noc(C)c1CN1CCN(CC(=O)Nc2ccc(Cl)c(C(F)(F)F)c2)CC1 | 97 | 97 | -14 | -1
O=C1/C(=C/Nc2cccnc2)S(=O)(=O)N(Cc2ccccc2)c2ccsc21 | 101 | 92 | -68 | 21
Nn1c(SCC(=O)N2CCCc3ccccc32)nnc1-c1ccccc1 | 104 | 104 | -22 | -16
C=CCn1c(=S)sc2c(Sc3nnc(-c4ccco4)o3)ncnc21 | 99 | 99 | 20 | 14
CN(CCNC(=O)c1cc2c(=O)n(C)c3ccccc3c2s1)Cc1ccccc1 | 103 | 106 | -13 | 1
COc1ccc2[nH]c(=O)c(CN(C)S(=O)(=O)c3ccc(C)cc3)cc2c1 | 104 | 104 | -7 | -6
CC1(C)CC2CC(C)(CN2CC(O)COCc2ccccc2F)C1 (configuration not stated) | 103 | 107 | / | -3
O=C(CCCC(=O)Nc1cccc2ccccc12)Nc1cccc2ccccc12 | 105 | 115 | 1 | /
O=c1[nH]c(CN2CCN(CC3CCCO3)CC2)nc2cc(-c3ccc(Cl)cc3)sc12 (configuration not stated) | 97 | 99 | 12 | 2
c1nc(NCc2ccc3c(c2)OCO3)c2nc3n(c2n1)CCCCC3 | 102 | 104 | -14 | -6
O=C(CSc1nc2c(c(=O)n1CCc1ccccc1)SCC2)Nc1nccs1 | 101 | 100 | 6 | 4
COc1cc2c(cc1OC)CN(C(=O)/C=C/c1ccc(OCc3c(C)noc3C)c(OC)c1)CC2 | 101 | 109 | -15 | -10
CC(/C=C1\SC(N(C)c2ccc(O)cc2)=NC1=O)=C\c1ccccc1 | 102 | 99 | -10 | 2
COC(=O)c1ccc(CSc2nc3ccccc3s2)o1 | 98 | 102 | -9 | /
O=C1CCCN1CCCNc1nc2c(S(=O)(=O)c3ccc(Br)cc3)nnn2c2ccccc12 | 98 | 101 | -8 | 15
c1ccc(-c2csc(-c3ccc4c(c3)OCCO4)n2)cc1 | 101 | 102 | -23 | 42
O=c1[nH]ncc(NCc2ccccc2)c1Cl | 102 | 105 | 2 | /
Cc1cccc(N2CCN(C(=O)Nc3ccccc3F)CC2=O)c1C | 100 | 104 | 28 | -4
Cc1cc(NS(=O)(=O)N2CCOCC2)no1 | 100 | 100 | -24 | -9

Two of the compounds above, comma-delimited:
structure,Polio RdRp inh,Polio RdRp inh intensity,MenB inh,MbtI inh
Nn1c(SCC(=O)N2CCCc3ccccc32)nnc1-c1ccccc1,104,104,-22,-16
c1ccc(-c2csc(-c3ccc4c(c3)OCCO4)n2)cc1,101,102,-23,42

Molecules shown so far with a halogen (9):
SMILES | Polio RdRp inh | Polio RdRp inh intensity | MenB inh | MbtI inh
O=C(O)CSc1nc2cc(C(F)(F)F)ccc2n1Cc1ccccc1 | 103 | 106 | / | 72
CSC(=CC(=O)c1ccc(Cl)cc1)SC | 101 | 103 | -14 | 15
O=C(O)c1ccc(CSc2nnc(COc3ccc(Cl)cc3Cl)o2)cc1 | 101 | 105 | 7 | 0
Cc1noc(C)c1CN1CCN(CC(=O)Nc2ccc(Cl)c(C(F)(F)F)c2)CC1 | 97 | 97 | -14 | -1
CC1(C)CC2CC(C)(CN2CC(O)COCc2ccccc2F)C1 (configuration not stated) | 103 | 107 | / | -3
O=c1[nH]c(CN2CCN(CC3CCCO3)CC2)nc2cc(-c3ccc(Cl)cc3)sc12 (configuration not stated) | 97 | 99 | 12 | 2
O=C1CCCN1CCCNc1nc2c(S(=O)(=O)c3ccc(Br)cc3)nnn2c2ccccc12 | 98 | 101 | -8 | 15
O=c1[nH]ncc(NCc2ccccc2)c1Cl | 102 | 105 | 2 | /
Cc1cccc(N2CCN(C(=O)Nc3ccccc3F)CC2=O)c1C | 100 | 104 | 28 | -4

Later entries
SMILES | Polio RdRp inh | Polio RdRp inh intensity | MenB inh | MbtI inh
COCC(C)n1c(SCc2nc3ccccc3c(=O)[nH]2)nc2ccccc2c1=O (configuration not stated) | 104 | 112 | 10 | -83
Cc1[nH][nH]c(=O)c1CCCOc1ccccc1 | 107 | 97 | 23 | /
O=C(Nc1sc2c(c1CN1CCOCC1)CCCC2)c1ccccc1 | 102 | 103 | / | 4
O=C(NCc1ccccc1)c1cc(-c2ccccc2)c(N2CCOCC2)s1 | 102 | 105 | -33 | -13
O=c1oc2c3c(ccc2c2ccccc12)OCN(Cc1ccccc1)C3 | 102 | 102 | 7 | 1
O=C(NCC(F)(F)F)Nc1ccccc1 | 101 | 103 | 6 | -9
C=C(C)C1CC[C@]2(C(=O)O)CC[C@]3(C)[C@H](CC[C@@H]4[C@@]5(C)CC[C@H](O)C(C)(C)[C@@H]5CC[C@]43C)[C@@H]12 (some centres not stated) | 104 | 102 | -18 | /
COc1nc2nonc2nc1OC | 102 | 103 | 27 | -11
O=C(CC1CCCC1)NCCc1cn2ccccc2n1 | 103 | 105 | -39 | 104
O=C(C[C@H]1NC(=O)[C@@H]2CCCN2C1=O)OCc1ccccc1 | 103 | 103 | -14 | /
CCC(=O)Nc1cccc(NC(=O)c2cc(OC)cc(OC)c2)c1 | 100 | 99 | -32 | 0
Cc1c(Cc2ccccc2)c(=O)oc2cc(OC3CCCCC3=O)ccc12 (configuration not stated) | 101 | 97 | -9 | 24
CNC(=O)c1ccc(NC(=O)C2=CSCCO2)cc1 | 102 | 101 | -32 | 21
Cc1ccc2[nH]c3c(c2c1)CCC1C3=NNC1c1ccco1 (configuration not stated) | 70 | 195 | 0 | -17
O=C(Nc1ccc(Cl)cc1)N1N=C2c3ccccc3CCC2C1c1cccs1 (configuration not stated) | 104 | 111 | -2 | 9
COCCN1C(=O)c2ccccc2C(C(=O)NCCN(C)C)C1c1ccc(F)cc1 (configuration not stated) | 99 | 101 | 3 | -5
O=C1CCC(C(=O)OCc2nc3ccccc3s2)N1 (configuration not stated) | 106 | 111 | -25 | -10
CCC(CC)(C(=O)O)C(=O)Nc1ccc(SC(F)F)cc1 | 99 | 106 | -14 | -9
O=C(COC(=O)CSc1ccc(Cl)cc1)Nc1ccc2[nH]c(=O)[nH]c2c1 | 97 | 86 | -19 | 19
COc1ccc(CCn2cnn3c(=O)c4ccccc4nc3c2=O)cc1OC | 103 | 105 | -8 | 9
O=C1OC(CC(=O)N2CCN(c3ccc(F)cc3)CC2)c2ccccc21 (configuration not stated) | 99 | 92 | -32 | -3
CC(CCC(=O)NC1CCCCC1)C(=O)O (configuration not stated) | 100 | 103 | -10 | -13
CC(=O)Nc1cc(C(=O)NCCN2C(C)CCCC2C)ccc1Sc1ccc(C)cc1 (configuration not stated) | 102 | 99 | 8 | 12
CN(C)c1nc(C(C)(C)C)cc2c1C(=O)NC2=O | 99 | 104 | 1 | -9
Cc1ccc(C2C(C#N)=C(N)N(c3cccnc3)C3=C2C(=O)CCC3)s1 (configuration not stated) | 99 | 112 | -49 | 22
Additional structures:
SMILES | Polio RdRp inh | Polio RdRp inh intensity | MenB inh | MbtI inh
COc1ccc(C2C=C(c3ccccc3)NC(=O)C2C#N)cc1 (configuration not stated) | 110 | 106 | -14 | /
Cn1c(=O)cc(N2CCCCC2)[nH]c1=O | 101 | 102 | -6 | -1
CC1(C(=O)NCC(=O)c2cccs2)Cc2ccccc2C(=O)O1 (configuration not stated) | 102 | 104 | -9 | -3
O=C1CCC(C(=O)OCN2C(=O)c3ccccc3C2=O)=NN1 | 101 | 105 | -9 | -1
CCN(CC)CC(=O)Nc1ccc(C)cc1Br | 100 | 104 | -7 | -10
COc1ccc(-c2nnc(C3CCN(S(=O)(=O)c4ccc5nc(-c6ccccc6)[nH]c5c4)CC3)o2)cc1 | 102 | 100 | -5 | 8
Cc1ccc2c(COC(=O)c3ccc(S(=O)(=O)NCc4ccco4)cc3)cc(=O)oc2c1 | 103 | 105 | -11 | 41
C/C(N)=C(/C#N)C(=O)CSc1nnc(COc2ccccc2Cl)o1 | 105 | 103 | 10 | 2
COc1cc(/C=C2\SC(=Nc3ccccc3)N(c3ccccc3)C2=O)cc(OC)c1O | 111 | 109 | -17 | /
Cc1noc(-c2ccccc2)c1NC(=O)N1CCOCC1 | 104 | 106 | -25 | -10
CN1CCC=C(Cc2n[nH]c(=O)c3ccccc23)C1 | 103 | 106 | 18 | 5
CCCN(Cc1nnc(-c2ccccc2Cl)o1)C(=O)c1ccc2[nH]c(C)c(C)c2c1 | 108 | 110 | -21 | 3
COC(=O)c1cc(S(=O)(=O)/C=C/c2ccccc2)c(Cl)cc1Cl | 103 | 104 | -32 | -1
COc1cccc(OC)c1C(=O)N1CCN(Cc2ccccc2F)CC1 | 99 | 100 | -17 | -15
Cc1cc(C(=O)COc2ncnc3c2cnn3-c2ccccc2)c(C)n1C1CC1 | 110 | 106 | -26 | -9
COc1ccc(N(C(=O)c2ccncc2)S(=O)(=O)c2cccs2)cc1 | 102 | 98 | -16 | 6
Cc1cccc(NNC(=O)C2CCCCC2)c1 | 105 | 105 | -3 | -2
CC1CCC(C(=O)Nc2cc3c(cc2N2CCCCC2)n(C)c(=O)c(=O)n3C)CC1 (configuration not stated) | 102 | 100 | -1 | 15
CCNc1nc(NC(C)C)nc(NC(N)NOC)n1 (configuration not stated) | 103 | 102 | -5 | 3
CN(C)S(=O)(=O)c1ccc(C(=O)NCc2ccccn2)cc1 | 103 | 99 | -34 | 5
COc1ccc(CCC(=O)N2C(=O)c3cccc(N)c3C2=O)cc1OC | 102 | 104 | -11 | 30
O=C(NCc1ccncc1)/C(=C/c1ccc(Cl)cc1)c1ccc(F)cc1 | 102 | 106 | / | -4
CC(=O)Nc1ccc(NC(=O)CCC2CCCC2)cc1 | 101 | 100 | -7 | -11
O=C(Nc1cccc2ccccc12)N1CCC(n2c(=O)[nH]c3ccccc32)CC1 | 106 | 101 | -41 | 8
Cc1ccc(NC(=O)CCn2c(=O)[nH]c3ccsc3c2=O)cc1 | 101 | 96 | -17 | -4
Next entries:
SMILES | Polio RdRp inh | Polio RdRp inh intensity | MenB inh | MbtI inh
COc1ccc(/C=C2\C(=O)N(C)c3ccccc32)cc1O | 101 | 106 | / | 9
Cc1cc(C(=O)CSc2n[nH]c(N)n2)c(C)n1-c1cccc(S(=O)(=O)N2CCOCC2)c1 | 99 | 105 | -13 | 4
Cc1ccc2[nH]cc(NC(=O)N3CCCCC3)c(=O)c2c1 | 103 | 102 | 5 | 89
Cc1ccc(NC(=O)C2=CSCCO2)cc1 | 100 | 103 | 21 | 18
CCN(CC)C(=O)CSc1nc2ccccc2c(=O)n1CC | 103 | 103 | -27 | -21
COc1cc(OC)c2c(O)cc(=O)[nH]c2c1 | 99 | 104 | -260 | i
N#CC1(C#N)C2CCCCC23OC(=N)C1(C#N)C(c1cccnc1)O3 (configuration not stated) | 97 | 101 | -11 | /
CCCCC1=NN(C(=O)C2CC2)C(O)(C(F)(F)F)C1 (configuration not stated) | 103 | 101 | -5 | -10
O=C(Nc1ccc(C(=O)N2CCOCC2)cc1)c1ccc2c(c1)OCO2 | 101 | 102 | 6 | 7
O=C(O)C1CC=CCC1C(=O)N1CCCC1 (configuration not stated) | 107 | 99 | -15 | -9
N#Cc1cnn(C(=O)c2ccc(NS(=O)(=O)c3cccs3)cc2)c1N | 100 | 104 | -9 | 4
O=C(Cc1cccs1)Nc1nccs1 | 101 | 102 | -11 | 3
CCOC(=O)c1ccc(S(=O)(=O)Nc2nn3cnnc3s2)cc1 | 98 | 101 | -32 | 1
COCCN1C(=O)c2ccccc2C(C(=O)NC2CCCC2)C1c1c[nH]c2ccccc12 (configuration not stated) | 104 | 106 | -4 | -3
COc1cc(NC(=O)COc2cc(C)c(Cl)c(C)c2)ccc1NC(=O)c1cc2ccccc2o1 | 100 | 100 | -26 | -7
CN(C)C(=O)COc1ccc2c3c(c(=O)oc2c1)CCC3 | 102 | 106 | / | -126
O=C1OC2(CCCCC2)OC(=O)C1=Cc1ccc2c(c1)OCO2 | 101 | 101 | -19 | 4
COc1cccc(N(C(=O)/C=C/c2ccco2)c2nc3ccccc3s2)c1 | 105 | 109 | -1 | -1
CN(C)Cc1cccc(C(=O)O)c1 | 101 | 102 | -22 | -1
CCSc1nnc(NC(=O)CCc2nc3ccccc3s2)s1 | 99 | 109 | -36 | 15
Cc1ccccc1-c1nc(CN2CCC(C(=O)NCc3ccco3)CC2)c(C)o1 | 104 | 109 | -15 | 1
CCC(=O)n1nc(-c2ccccc2)nc1NCc1ccco1 | 104 | 105 | -22 | -66
CN1CCCN(C(=O)c2ccc3c(c2)OCO3)c2nc3ccccc3nc21 | 99 | 105 | -95 | -22
CCOc1ccc(-n2c(C)nc3cc(C(=O)NCc4ccccc4Cl)ccc32)cc1 | 101 | 105 | -6 | -2
CCn1nnc2cc(C(=O)OCC(=O)Nc3cc(F)ccc3F)ccc21 | / | / | 1 | 1
COc1cc(N2CN=c3s/c(=C\C=C\c4ccccc4)c(=O)n3C2)cc(OC)c1OC | 103 | 107 | -12 | 0
COc1cccc(Cn2c(=O)n(Cc3ccccc3)c(=O)c3cccnc32)c1 | 106 | 108 | -27 | 19
COC(=O)c1c(O)c(C=Nc2ccc(C)cc2)c(=O)n2c1CCC2 | 112 | 114 | -24 | 0
N#Cc1c(N)nc(SCC(=O)c2ccc3ccccc3c2)c(C#N)c1-c1cccc(F)c1 | 109 | 114 | -12 | /
